Beta apoptosis = blocks beta cell apoptosis; AID 435005; INS-1E cytokine-induced death, ATP luminescence, 48 h; percent of positive-control rescue, neutral wells zero; protection from apoptosis, % (no concentration beside the values); 300,000 tested, 0.8% active;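 active = all replicates at 75% or more, or half of them and the mean; inconclusive = half reach 75% but not the mean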;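 also: 0% = cytokine-treated negative control wells and 100% = positive control rescue; higher means more ATP so stronger rescue from cytokine killing; wells of about 40 µL received 100 nL stock; the first replicate is given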
T cruzi repl = T. cruzi replication inhibition. 300,000 tested, 1.4% active. inhibition, % (concentration not given with the values). AID 1885. T. cruzi beta-gal in NIH3T3, luminescence, 90 h;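 active = mean inhibition across valid replicates above about 55%, limit read from the data; inconclusive = mean below that limit but half or more replicates reach it; inactive = mean below it, under half of replicates reach it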;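 also: signal also drops with host cell toxicity which is not excluded here; 0% = plate median of DMSO wells and 100% = zero luminescence signal; higher percent means less beta-gal luminescence so fewer parasites; stock transfer was 50 nL into about 50 µL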
UCH37 DUB inh = inhibitors of human deubiquitinating enzyme UCH37. Q9Y5K5. purified proteasome/UCH37, Ub-AMC cleavage fluorescence. inhibition, % (no concentration beside the values). 330,000 tested, 0.33% active;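 active = mean of two replicates above 20%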;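 also: 0% = compound-free wells with enzyme and 100% = wells lacking proteasome; stock transfer was 100 nL into about 20 µL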
Target sequence (Q9Y5K5 whole entry, looked up): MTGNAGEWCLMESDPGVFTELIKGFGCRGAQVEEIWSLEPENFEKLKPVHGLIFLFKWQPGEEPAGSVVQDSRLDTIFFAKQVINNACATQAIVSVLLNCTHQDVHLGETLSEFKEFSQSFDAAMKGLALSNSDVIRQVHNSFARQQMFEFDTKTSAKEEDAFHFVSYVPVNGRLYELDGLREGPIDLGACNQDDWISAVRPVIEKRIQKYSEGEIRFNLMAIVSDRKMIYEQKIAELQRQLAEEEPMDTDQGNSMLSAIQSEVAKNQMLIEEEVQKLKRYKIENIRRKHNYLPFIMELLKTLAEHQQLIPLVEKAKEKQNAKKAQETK
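system = Proteasome-associated human UCH37 deubiquitinase | amount = 0.15 nM proteasome as dispensed | medium = pH 7.4 Tris-HCl (50 mM) with ovalbumin, ATP-MgCl2, DTT | incubation = 30 min preincubation with enzyme, 25 min cleavage at room temperature | detection = AMC fluorescence 355/460 nm | read-out basis = percent inhibition | controls = no-proteasome and no-compound wells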
Calb FLC = affects C. albicans growth with fluconazole; C. albicans CaCi-2 (fluconazole-resistant clinical isolate) + fluconazole, Alamar Blue growth, 48 h; growth inhibition, % (concentration not given with the values); 300,000 tested, 0.57% active;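 active = most replicates above 75%; inconclusive = exactly half above 75%; inactive = most below 75%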;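 also: all wells also contain fluconazole at 8 µg/ml as a sub-toxic cotreatment; 0% = median of DMSO wells and 100% = median of geldanamycin control wells; wells of about 8 µL received 7.5 nL stock; the first replicate is given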
B2AR ag = agonists of human beta-2 adrenergic receptor inducing internalization | AID 504454 | 340,000 tested, 0.43% active | response, % (concentration not given with the values) | P07550 | Am2.2-beta2AR cells, FAP receptor internalization, flow cytometry; reference of the scale not given here;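 active = response above a set limit, near 3 SD of response in nonfluorescent compounds, cut at about 42% in these data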;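 also: stock transfer was 100 nL into about 11 µL; a reference agonist was the positive control; negative values mostly stem from fluorescent compounds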
Target sequence (P07550 whole entry, looked up): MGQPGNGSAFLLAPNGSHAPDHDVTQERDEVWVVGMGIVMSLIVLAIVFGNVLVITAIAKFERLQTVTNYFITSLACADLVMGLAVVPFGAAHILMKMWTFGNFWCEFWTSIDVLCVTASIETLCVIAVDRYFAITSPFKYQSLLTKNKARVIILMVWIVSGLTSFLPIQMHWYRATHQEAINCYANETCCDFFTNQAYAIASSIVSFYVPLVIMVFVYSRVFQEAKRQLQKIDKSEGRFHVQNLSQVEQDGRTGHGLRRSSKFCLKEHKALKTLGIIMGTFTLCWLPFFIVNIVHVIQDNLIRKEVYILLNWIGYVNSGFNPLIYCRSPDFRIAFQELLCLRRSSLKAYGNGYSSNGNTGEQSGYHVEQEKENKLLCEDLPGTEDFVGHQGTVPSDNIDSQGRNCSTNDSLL
A1 inh = inhibitors of the anti-apoptotic protein A1, read as caspase activation | caspase activation, % (no concentration beside the values) | AID 2462 | MEF A1-2A-BIM cells, Caspase-Glo 3/7 luminescence, 3 h; percent of clofoctol response, vehicle zero | 330,000 tested, 0.066% active;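 active = over half of replicate activation scores above 10%, or exactly half above 10 with the replicate mean above 10; inconclusive = replicate mean below 10 yet half the replicates above 10; inactive = over half of replicates below 10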;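 also: wells of about 30 µL received 50 nL stock; many hits fall short of the cut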
RanGTP-Imp inh = disruptors of Ran-importin-beta complex formation – biochemical, FRET, CFP-Ran, YFP-importin-beta, homogeneous, primary screen; 300,000 tested, 1.1% active; cell-free CFP-Ran/YFP-importin-beta FRET ratio; AID 2216; inhibition, % (concentration not given with the values);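 active = most replicates above 15%; inconclusive = exactly half above 15%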;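 also: 0% = DMSO wells and 100% = Ran loaded with GDP instead of GTP; wells of about 40 µL received 100 nL stock; the first replicate is given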
LANA-H2A inh = blocks KSHV LANA binding to histone H2A/H2B. inhibition, % (no concentration beside the values). AID 2629. cell-free LANA-H2A/H2B peptide, fluorescence polarization. 320,000 tested, 0.6% active; in the data active = inhibition mostly above about 10%, no sharp cut-off; inactive = mostly below about 6.7%;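 also: stock transfer was 7.5 nL into about 10 µL; 0% = median of vehicle wells and 100% = median of positive control wells; one replicate is shown; the record names a cut of 25% in any replicate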
* hit, by the source's call; u = inconclusive; x = no result given.

SMILES	Beta apoptosis	T cruzi repl	UCH37 DUB inh	Calb FLC	B2AR ag	A1 inh	RanGTP-Imp inh	LANA-H2A inh
O=C(CN1CCN(S(=O)(=O)c2cccc(Br)c2)CC1)NCCc1cccs1	-2	x	4.4	x	-2	0.0	x	-157
Cc1nc(Cl)sc1C(=O)Nc1cc(F)cc(F)c1	-4	-11	2.5	1	-1	-0.7	1.5	1.4
CN(C)S(=O)(=O)c1ccc(C(=O)OCC2COC(C)(C)O2)cc1 (configuration not stated)	-2	-5	1.9	-1	-6	1.1	0.6	0.7
O=C(COC(=O)c1cc[n+]([O-])cc1)NCCc1ccc(Cl)cc1Cl	-2	-5	1.5	-33	-1	1.7	0.2	-2.9
CN(C)S(=O)(=O)c1ccc(C(=O)NCc2nnc(SCC(=O)c3ccccc3)o2)cc1	-3	-3	1.3	-2	-3	0.5	u	-1.6
O=C(/C=C/c1ccccc1)OCC(=O)c1ccc[nH]1	0	-3	-2.4	-9	-4	-0.4	6.4	-0.7
Cc1nn(C(C)C(=O)NCC2CCCO2)c(=O)c2c1sc1ccccc12 (configuration not stated)	3	9	-1.4	8	-1	-0.4	-0.4	4.8
Cc1nn(CC(N)=O)c(=O)c2ccccc12	6	58*	3.6	1	-6	0.4	-2.7	0.7
CCOC(=O)N1CCN(C(=O)C(=O)Nc2sc3c(c2C(=O)O)CC(C)(C)OC3)CC1	-1	-6	8.1	0	-2	-0.1	1.2	-1.6
CCOc1c(Cl)cnn(-c2ccc(C)cc2)c1=O	-3	x	2.1	13	2	0.0	2.1	3.2
CCOc1ccc2[nH]c(=O)c(CN(CCN3CCCC3)C(=S)Nc3ccccc3OCC)cc2c1	-3	13	-73	2	2	-0.1	-1.4	-2.7
COc1ccc(-c2cc(C(F)(F)F)n3ncc(C(=O)NCC4CCCO4)c3n2)cc1OC (configuration not stated)	14	7	1.0	-2	4	0.4	0.8	-0.5
CCOC(=O)CSc1ncc(-c2ccccc2)nn1	-10	-15	3.7	3	-1	-0.4	1.9	0.2
O=C(CCCCCn1nnc2ccccc2c1=O)Nc1ccccc1F	1	-3	5.2	0	7	0.7	u	1.4
Clc1ccc(-c2csc(N/N=C/c3ccco3)n2)cc1	2	33	x	-10	2	0.0	-1.2	-4.1
Cc1ccc(S(=O)(=O)NCC(=O)N(CC2CCCO2)C(C(=O)NC2CCCC2)C(C)C)cc1 (configuration not stated)	-3	10	3.8	5	-6	-0.4	-0.4	-7.7
COc1ccc(-c2cn3cccnc3n2)cc1NC(=O)C1CC1	-3	-7	-59	1	-10	-0.5	5.2	1.6
COc1ccc(C(c2nnnn2C(C)C)N2CCN(C(=O)c3ccco3)CC2)cc1 (configuration not stated)	-5	0	-0.1	1	22	-3.5	6.2	2.0
COc1ccccc1NS(=O)(=O)c1ccc(O)c(C(=O)OCc2cccc([N+](=O)[O-])c2)c1	-4	-5	0.4	-6	0	0.1	-0.7	0.2
COc1ccccc1NC(=O)CN1C(=O)C(C)Oc2ccccc21 (configuration not stated)	-3	-3	3.1	-17	5	0.7	0.6	1.6
CN1C(C(=O)NCc2ccc(OC(F)(F)F)cc2)CC2Cn3c(nc4ccccc43)C21 (configuration not stated)	1	21	-2.1	6	-16	-0.3	-0.5	2.9
COc1ccc(Nc2nnc(-c3ccccc3)c3ccccc23)cc1C(=O)N1CCCCC1	-1	-13	6.4	21	5	0.9	-2.2	-11
O=C(Cn1nnc(-c2ccccc2)n1)NCc1ccccc1	-8	-2	0.6	4	-14	-0.7	-1.8	-5.6
CCOc1ccccc1N1CCN(c2nc(N)c(C#N)c(CC#N)c2C#N)CC1	-4	44	-2.0	23	4	0.3	-66	1.8
COc1ccc(-c2cc(OC)c3c(C)oc(C)c3c(=O)c2)cc1OC	5	-10	3.4	17	12	-0.1	-4.8	-0.1
O=C(COC(=O)c1ccc2[nH]c3c(c2c1)CCCC3)Nc1ccccc1Cl	-1	8	-5.0	2	4	-1.1	0.4	-1.0
COC(=O)c1[nH]c2ccc(F)cc2c1NC(=O)C1=COCCO1	-7	2	-1.0	-5	-5	0.1	5.7	11*
O=C(CN1C(=O)c2ccccc2S1(=O)=O)Nc1ccon1	-4	-4	x	-4	6	0.7	5.5	-3.8
CCCOc1ccc(C2C(C(=O)c3ccc(C)o3)=C(O)C(=O)N2CCCn2ccnc2)cc1 (configuration not stated)	-5	-9	9.8	8	-15	-0.4	6.2	-323
COCCCNc1c2c(nc3nnnn13)CCCC2	-6	-8	0.7	1	3	1.7	1.4	1.9

Arranged by the number under B2AR ag (largest number first): 3 from the list above
SMILES	B2AR ag
O=C(CN1CCN(S(=O)(=O)c2cccc(Br)c2)CC1)NCCc1cccs1	-2
CN(C)S(=O)(=O)c1ccc(C(=O)NCc2nnc(SCC(=O)c3ccccc3)o2)cc1	-3
COC(=O)c1[nH]c2ccc(F)cc2c1NC(=O)C1=COCCO1	-5

The results go on:
SMILES	Beta apoptosis	T cruzi repl	UCH37 DUB inh	Calb FLC	B2AR ag	A1 inh	RanGTP-Imp inh	LANA-H2A inh
COCC(=O)Oc1c(S(=O)(=O)c2ccc(C)cc2)c(C)nn1C(C)(C)C	-7	-1	4.2	13	11	-4.6	-0.8	-1.4
N#C/C(=C(/O)COC(=O)CCC1CCCCC1)c1nc2ccccc2[nH]1	1	-6	x	3	30	1.0	0.1	-1.3
NC(=S)N/N=C/c1ccc(-c2cc(Cl)ccc2Cl)o1	10	67*	x	93*	0	0.7	-2.8	0.3
Cc1cc(Oc2ccc(=O)[nH]n2)nc(Cl)n1	-6	3	1.5	-2	1	3.6	-0.1	-4.2
C/C(=N/NC(=O)c1cccc(N2CCCC2=O)c1)c1ccc(Br)cc1	3	8	x	12	-14	0.0	-1.2	2.9
O=C1CCC(=O)N1c1ccccc1OS(=O)(=O)c1ccccc1	-5	-8	1.2	2	1	u	0.7	-8.9
Cc1c(Cc2ccc3c(c2)OCO3)sc(NC(=O)c2ccccc2)c1C(N)=O	6	2	-187	1	-4	0.0	1.4	7.3
CCOCCCNC(=O)c1cccs1	1	-10	-0.6	3	-5	-1.2	-0.7	4.7
CC(=O)OCCOc1nc(N(C)C)nc(N(C)C)n1	-5	-11	1.3	-8	1	-0.3	7.9	5.6
CCOC(=O)N1CCN(C(=O)c2ccc3c(SCC(=O)O)c4c(nc3c2)CCCC4)CC1	-5	0	2.4	-3	-4	-0.3	-0.5	-5.5
COc1ccc(NC(=O)COC(=O)c2c(C)noc2C)c(OC)c1	-2	-18	2.2	-3	6	0.2	3.8	-0.5
CC(/C=N/NC(=O)Cc1cccn1C)=C\c1ccco1	-7	-18	x	0	0	1.5	4.9	10.0
Cc1c(CN2CCCC(C(=O)Nc3cccc(-n4cccn4)c3)C2)cnn1C (configuration not stated)	-4	30	4.0	-10	-1	-0.4	-2.2	9.3
CCO[C@H]1OC(C(=O)NCc2nc3ccccc3[nH]2)=C[C@@H](c2csc3ccccc23)[C@@H]1CCCO	-6	13	x	19	-3	1.2	2.1	-5.7
COC(=O)Cc1c(C)c2ccc(OCC(C)=O)c(C)c2oc1=O	-1	1	-143	-6	9	0.2	0.1	-0.3
CSCC(C)N1CCC(n2nccc2NC(=O)CCOc2ccccc2)CC1 (configuration not stated)	-2	28	0.3	0	8	0.6	11	6.5
CNc1nc(SC)nc2ccccc12	0	-7	-2.5	15	-3	-0.5	4.3	-2.2
O=C(CCCc1nc(-c2ccc(Cl)cc2)no1)NCC1CCCO1 (configuration not stated)	x	-3	2.6	0	-4	0.2	-0.1	-3.5
COC(=O)c1c(NC(=O)CN2CCN(C(=O)c3ccco3)CC2)c2cc(C)ccc2n1C	4	26	-9.5	3	4	1.0	-3.5	3.4
Cc1ccc(-c2cc(C(=O)N3CCCCC3)c3ccccc3n2)cc1C	11	21	-58	2	6	-0.8	-3.0	-8.7
CC(=O)NS(=O)(=O)c1ccc(NS(=O)(=O)c2ccc3ccccc3c2)cc1	x	-5	3.1	-6	-2	0.2	3.4	2.6
O=C1CC2(CCN(C(=O)c3ccccc3F)CC2)Oc2ccccc21	-4	-15	-39	-16	4	-0.6	-4.0	-0.7
CC(=O)c1cc2c(cc1NS(=O)(=O)c1ccccc1)OCO2	-1	21	3.0	u	0	0.4	-0.2	2.7
COCCSc1nnc(NC(=O)Cc2ccccc2OC)s1	-3	4	1.3	-11	4	0.4	1.1	3.8
CC(=O)Nc1ccc(NC(=O)C(C)N(C)CC(=O)Nc2ccccc2Br)cc1 (configuration not stated)	-1	-9	0.3	-8	-12	0.4	0.7	1.5
CCOC(=O)C1(C)NC(c2ccco2)C2C(=O)N(CC)C(=O)C21 (configuration not stated)	3	-2	1.1	-2	1	u	3.7	0.1
Nc1ccc(C(=O)OCC(=O)NC2CCCc3ccccc32)cc1[N+](=O)[O-] (configuration not stated)	5	-5	0.3	4	-6	1.1	1.5	1.7
COc1ccc(S(=O)(=O)Nc2cc(C)ccn2)cc1OC	-5	-7	2.4	-11	4	0.9	-5.8	-3.3
COc1ccc(S(=O)(=O)NCC(c2cccnc2)N2CCN(c3ccc(F)cc3)CC2)cc1C (configuration not stated)	x	44	-5.6	4	-10	x	-1.4	x
Cc1nc(-c2ccccc2)sc1-c1ccnn1C	-5	-12	-237	-9	3	-1.3	-3.7	-1.8
O=C(C1CCCN(Cc2ccccc2C(F)(F)F)C1)N1CCCCC1 (configuration not stated)	-6	0	1.4	-3	-3	0.2	3.1	-4.0

Screening results deposited in PubChem BioAssay by several laboratories.
